Screening data as filed in PubChem BioAssay.
Measles inh – inhibitors of measles virus growth in cells, primary screen, measles RdRp inhibitor project, cell-based, single point, HTS; infected Vero cells, GFP fluorescence, 64 h; hits give low values; z-score (concentration not given with the values); 33,000 compounds, 0.1% hits;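 active = z-score under -3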;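 note: score is relative to mean and SD of the compound wells of a plate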
Active calls of the source: *. A portion of the library (hit frequency here may not be typical).

SMILES | Measles inh
COCCOC(=O)C1=C(C)N=C2SC(C)C(=O)N2C1c1cccc(Br)c1 (stereo not drawn) | -0.99
Cc1cccc(Cn2c(=O)n(-c3ccc(C)c(F)c3)c(=O)c3sccc32)c1 | -0.6
Cc1ccc(C(=O)O)cc1NC(=O)C1CC=CCC1C(=O)O (stereo not drawn) | -0.34
COc1ccc2nc(NC(=O)c3n[nH]c(=O)c4ccccc34)sc2c1 | -1.67
CCOC(=O)c1cc2c(=O)n3ccccc3nc2n(C(C)C)c1=NC(=O)C(C)(C)C | -0.01
COCCNC(=O)c1ccc2c(c1)ncn2-c1cc(OC)c(OC)c(OC)c1 | -0.15
COCCn1c(=O)[nH]c2cc(C(=O)Nc3ccc(OC)c(OC)c3)ccc2c1=O | -0.49
Cc1[nH]c2ccccc2c1C(Nc1ccccn1)c1ccc(C(F)(F)F)cc1 (stereo not drawn) | -0.05
COc1ccc(NC(=O)C2=C(C)NC(=S)NC2c2ccc(O)c(OC)c2)c(OC)c1 (stereo not drawn) | -1.38
Cc1ccc(-c2csc3ncnc(Nc4ccc5c(c4)OCCO5)c23)cc1 | 0.16
Cc1cc(C)c(-c2csc(NC(=O)c3ccc(S(=O)(=O)N4CCc5ccccc54)cc3)n2)c(C)c1 | 1.46
COc1ccccc1CNC(=O)c1c[nH]c2ccc(S(=O)(=O)NC3CCCCNC3=O)cc2c1=O (stereo not drawn) | -0.57
CCOC(=O)c1ccc2c(c1)sc(=NC(=O)c1ccc(S(=O)(=O)N(CC)CC)cc1)n2C | -0.15
CC(C)C(=O)Nc1c2c(nn1-c1cccc(Cl)c1)CS(=O)C2 (stereo not drawn) | 0.12
C=CCNC(=O)c1cc(=O)[nH]c2ccc(S(=O)(=O)N3CCCCC3C)cc12 (stereo not drawn) | -0.76
COc1ccc(C2C(C(=O)N3CCCCCC3)c3ccccc3C(=O)N2C2CCCCC2)cc1 (stereo not drawn) | -0.64
CCOC(=O)c1c(NC(=O)C(c2ccccc2)c2ccccc2)sc2c1CCCC2 | -0.21
Clc1ccccc1Nc1ncnc2ccccc12 | 1.07
COc1cc(-c2cc(C(=O)O)c3ccccc3n2)ccc1O | 0.88
Cc1ccc2c3c(ccc2n1)NC1=C(C(=O)CCC1)C3c1ccc(-c2ccccc2)cc1 (stereo not drawn) | -0.68
COc1ccccc1NC(=O)CN(c1cccc([N+](=O)[O-])c1)S(=O)(=O)c1ccccc1 | 0.76
Cc1ccc(NC(=O)c2c(NC(=O)c3ccccc3Cl)sc3c2CCC3)cc1 | -0.09
COc1cc(OC)cc(C(=O)N2CCc3ccccc32)c1 | 0.51
COc1ccc(N2CCN(c3ccc(N4C(=O)COCC4=O)cc3[N+](=O)[O-])CC2)cc1 | -1.89
FC(F)(F)c1cc(-c2ccco2)nc(NCc2cccnc2)n1 | 0.74

Three structures out of the list, arranged by count of non-hydrogen atoms, lowest first.
SMILES | Measles inh
COc1cc(OC)cc(C(=O)N2CCc3ccccc32)c1 | 0.51
COc1cc(-c2cc(C(=O)O)c3ccccc3n2)ccc1O | 0.88
CCOC(=O)c1c(NC(=O)C(c2ccccc2)c2ccccc2)sc2c1CCCC2 | -0.21

(listing goes on)
SMILES | Measles inh
O=C(Nc1ccc2oc(-c3ccc(F)cc3)nc2c1)c1cccc(Cl)c1 | 0.45
CCN1C2=C(C(=O)CCC2)C(c2ccc(O)c(OC)c2)C2=C1CCCC2=O | 0.53
CC1(C(=O)O)NCCc2c1[nH]c1ccccc21 (stereo not drawn) | 0.89
CCOC(=O)c1ccc(NC(=O)c2ccccc2)cc1 | 0.21
COc1ccc(C2CC(c3ccc(Br)cc3)=NN2c2ccccc2)cc1OC (stereo not drawn) | -0.74
COc1ccc(-c2nnc(SCC(=O)N3CCOCC3)o2)cc1 | -0.57
COc1cc(NC(=O)C(=O)N2CCN(C)CC2)c(OC)cc1Cl | -1.25
COc1ccc(NC(=O)C2c3cc(OC)c(OC)cc3C(=O)N(C)C2c2ccccc2F)c(OC)c1 (stereo not drawn) | 2.29
CN(C(=O)CSc1c2c(nc3ccc(Cl)cc13)CCCC2)C1CCCCC1 | 1.43
CCc1ccc(C2NC(=O)NC(C)=C2C(=O)OCc2ccc3c(c2)OCO3)cc1 (stereo not drawn) | 0.08
CCOc1cccc2sc(NC(=O)c3ccc(C(C)(C)C)cc3)nc12 | -0.65
CNC(=O)COc1ccc(Nc2nnc(-c3ccc(C)cc3)c3ccccc23)cc1 | -1.87
Cc1cccc(-n2cnc3cc(C(=O)O)ccc32)c1 | -0.07
Cc1ccc(N2C(=O)C3C4C=CC(C4)C3C2=O)cc1Cl (stereo not drawn) | -0.43
CC1CC(C)CN(CC(=O)N2CCCc3c2c(=O)oc2ccc(O)cc32)C1 (stereo not drawn) | 0.89
CCCOc1ccc(OC(=O)c2cccc(C(=O)OC)n2)cc1 | -0.53
CCCNC(=O)c1ccc(Oc2cccc([N+](=O)[O-])c2)c([N+](=O)[O-])c1 | 1.48
O=C(NCc1cccs1)C1CCN(c2nc3ccccc3o2)CC1 | 0.56
CN(C)S(=O)(=O)c1ccc(C(=O)Nc2nnc(-c3ccc(Cl)s3)o2)cc1 | -0.94
COC(=O)C(C)Nc1n[nH]c(=S)[nH]c1=O (stereo not drawn) | -0.11
Cc1ccc(NC(=O)CN(Cc2ccccc2)S(=O)(=O)c2ccc(Br)cc2)cc1Cl | -1.41
Clc1ccc2c(c1)CN(C1CCCCC1)CO2 | -0.13
Nc1nc2ccc(CC(=O)O)cc2s1 | 0.1
Cc1nc(-n2cnc3cc(C)c(C)cc32)c2c3c(sc2n1)CCC3 | 0.45
COc1ccccc1CC(=O)Nc1ccc(-c2noc(COc3cccc(C)c3C)n2)cc1 | 0

Looked up above:
Measles inh with `COc1ccc(-c2nnc(SCC(=O)N3CCOCC3)o2)cc1` → -0.57
Measles inh with `COc1cc(NC(=O)C(=O)N2CCN(C)CC2)c(OC)cc1Cl` → -1.25
Measles inh with `O=C(NCc1cccs1)C1CCN(c2nc3ccccc3o2)CC1` → 0.56
Measles inh with `Cc1cccc(-n2cnc3cc(C(=O)O)ccc32)c1` → -0.07
Measles inh with `Cc1ccc(N2C(=O)C3C4C=CC(C4)C3C2=O)cc1Cl` (stereo not drawn) → -0.43

Three entries out of the list above, ordered by the value under Measles inh, lowest first:
SMILES | Measles inh
COc1cc(NC(=O)C(=O)N2CCN(C)CC2)c(OC)cc1Cl | -1.25
O=C(NCc1cccs1)C1CCN(c2nc3ccccc3o2)CC1 | 0.56
CCCNC(=O)c1ccc(Oc2cccc([N+](=O)[O-])c2)c([N+](=O)[O-])c1 | 1.48

The main list resumes, starting two compounds before the break.
SMILES | Measles inh
Cc1nc(-n2cnc3cc(C)c(C)cc32)c2c3c(sc2n1)CCC3 | 0.45
COc1ccccc1CC(=O)Nc1ccc(-c2noc(COc3cccc(C)c3C)n2)cc1 | 0
COc1ccc(CCNC(=O)C(=O)Nc2ccc(C)cc2)cc1 | -1.73
COC(=O)C1=C(C)N(C)C(C)=C(C(=O)OC)C1c1ccc(C(F)(F)F)cc1 | 2.93
CCOc1ccc(C(=O)Nc2ccc(-c3cc4ccccc4oc3=O)cc2)cc1[N+](=O)[O-] | 0.26
CC(=O)OCCNc1cc(SCc2ccco2)c2nonc2c1[N+](=O)[O-] | 1.92
COc1ccc(C2=NN(C(=O)CCC(=O)O)C(c3cc4ccc(OC)cc4nc3Cl)C2)cc1 (stereo not drawn) | 0.62
CC1=C(C(=O)Nc2ccccn2)C(c2ccccc2)C2=C(CCCC2=O)N1 (stereo not drawn) | 0.12
CCOC(=O)CCC(=O)Nc1ccc(S(=O)(=O)N2CCOCC2)cc1 | -0.77
Cc1[nH]n(-c2ccccc2)c(=O)c1C(c1ccc(C#N)cc1)c1c(C)[nH]n(-c2ccccc2)c1=O | 0.13
CN(C)c1cc(NC(=O)CN2CCN(C(=O)c3ccccc3)CC2)c2ccccc2n1 | -0.71
O=C(NC1CC1)c1ccc2c(c1)N(Cc1ccccc1Cl)C(=O)CS2 | -0.16
Cc1c(C(=O)N(C)Cc2ccccc2)sc2ncnc(N(C)c3ccccc3)c12 | -0.25
COc1ccc(-n2ncc3c(N4CCCC(C)C4)ncnc32)cc1 (stereo not drawn) | 1.24
CCCCOC(=O)C1=C(C)N(C)C(=O)NC1c1ccccc1[N+](=O)[O-] (stereo not drawn) | 0.03
COc1ccc2oc(=O)c(-c3csc(Nc4ccccc4C(F)(F)F)n3)cc2c1 | -0.26
COc1ccc(NC(=O)C2=C(C)NC3=C(C(=O)CC(c4ccc(OC)c(OC)c4)C3)C2c2ccc(C)cc2)cc1 (stereo not drawn) | -0.21
CC1CCCCN1CCCNC(=O)c1cc(-c2ccncc2)nc2ccccc12 (stereo not drawn) | 1.04
CC(=O)Nc1ccc(S(=O)(=O)n2nc(C)c(Sc3ccc(Cl)cc3)c2C)cc1 | -1.89
Cc1cc(=O)[nH]c(SCC(=O)Nc2ccccc2F)n1 | 1
CCc1ccc(Nc2cc(C(=O)NCCOC)c3ccccc3n2)cc1 | -1.36
CC1CCN(CC(C)CNC(=O)C2(O)c3cc(Br)ccc3NC(=O)N2c2ccccc2)CC1 (stereo not drawn) | 0.1
CCC1Oc2ccccc2N(CC(=O)NC2CCCC2)C1=O (stereo not drawn) | 1.64
N#Cc1nc(COc2ccc(Br)cc2)oc1NCCCn1ccnc1 | -1.09
CCOc1ccc(CNC(=O)CN2C(=O)COc3ccc(C(C)(C)C)cc32)cc1OC | 1.16
CC(C)(C)c1cc(Cl)c(O)c(N=Cc2ccccc2O)c1 | -0.95
CCOc1ccc2ccccc2c1C(=O)N1CC(=O)Nc2ccc(C)cc2C1c1ccc(F)cc1 (stereo not drawn) | 1.32
The listing continues:
SMILES | Measles inh
CC1CCN(S(=O)(=O)c2ccc3c(c2)N(CC(=O)NCCCN2CCCC2)C(=O)CS3)CC1 | 0.22
CSc1nc2c(c(=O)[nH]1)C(c1ccc(N(C)C)cc1)C1=C(CCCC1=O)N2 (stereo not drawn) | -0.58
COc1ccc(CN(Cc2ccccc2)C(=O)NC(C)(C(F)(F)F)C(F)(F)F)cc1 | -0.54
CC1=C(C(=O)OCCc2ccccc2)C(c2ccccc2OCc2ccccc2)NC(=O)N1 (stereo not drawn) | 1.53
COc1ccc(CCNC(=O)c2sc3ccccc3c2Cl)cc1 | 0.18
O=C1C(Nc2ccc(F)cc2)=C(N2CCCCC2)C(=O)c2ccccc21 | -0.68
Cc1ccccc1-n1nc2c(c1NC(=O)C1CCCC1)CS(=O)(=O)C2 | -0.66
COc1cc2c(cc1OC)C(COc1ccc([N+](=O)[O-])cc1)N(C(=O)COc1ccccc1)CC2 (stereo not drawn) | -0.51
CC1=CC(C)C2COC(c3ccc4c(c3)OCO4)C1C2C (stereo not drawn) | 0.29
Cc1n[nH]c(C)c1S(=O)(=O)N1CCC(C(=O)N2CC(=O)N(CCc3ccccc3)C(=O)C2)CC1 | 1.07
FC(F)(F)c1cc(-c2ccc(Cl)cc2)nc(NCc2cccnc2)n1 | -0.67
C=CCNC(=O)C(C)N(c1ccc(OCC)cc1)S(C)(=O)=O (stereo not drawn) | 1.51
O=C(CSc1nnnn1-c1ccc(F)cc1)NCCc1ccccc1 | -1.64
Cn1cc(C(=O)N2CCCCCC2)c2ccccc2c1=O | 0.43
Cc1ccc(NC(=O)CCC(=O)Nc2ccc3nc(N4CC(C)CC(C)C4)cc(C)c3c2)cc1F (stereo not drawn) | 0.23
COc1ccc(CN2CCCC2C(=O)Nc2ccc(OC)c(OC)c2)cc1OC (stereo not drawn) | 1.04
Cc1ccc(N=C2C(=O)Nc3ccc(C)c(Br)c32)cc1I | -1.14
COC(=O)c1cccc(CN2C(=O)SC(Nc3ccc(Br)cc3)C2=O)c1 (stereo not drawn) | -0.35
Cc1cc(C)cc(NC(=O)CCN2C(=O)c3ccccc3C2=O)c1 | 0.65
O=C(Oc1cccc2cccnc12)c1ccco1 | -1.39
Cc1ccc(N2CC(C(=O)NCC(C)C)CC2=O)cc1 (stereo not drawn) | -0.07
Cc1cn(CO)c(=O)n(CO)c1=O | 0.09
CCOC(=O)c1c(NC(=O)Nc2ccccc2C)sc2c1CC(C)(C)OC2 | -0.9
Cc1ccc(CN2C(=O)CSc3ccc(C(=O)NCCC(C)C)cc32)cc1 | 0.43
Cc1ccc(Oc2ccccc2[N+](=O)[O-])cc1 | -0.82
(listing goes on)
SMILES | Measles inh
O=C(C1CCCN(S(=O)(=O)N2CCCC2)C1)N1CCN(c2cccc(Cl)c2)CC1 (stereo not drawn) | -0.41
Cc1ccc(C(=O)Nc2nc3ccc4sc(C)nc4c3s2)cc1 | -1.16
O=C(O)C1CCC(CNS(=O)(=O)c2ccccc2)CC1 (stereo not drawn) | 0.42
CC(C)CCNC(=O)C1CCN(S(=O)(=O)N2CCCC2)CC1 | 2.13
CC(=O)c1ccc(N2CCN(C(=O)c3ccc4c(=O)n(-c5ccc(C)cc5)c(=O)[nH]c4c3)CC2)cc1 | 1.81
CCn1ncc(Br)c1C(=O)Nc1sc2c(c1C(=O)OC)CCC2 | 0.77
CC1CCc2nc(NC(=O)c3ccc(S(=O)(=O)N(C)c4ccccc4)cc3)sc2C1 (stereo not drawn) | -1.13
Cc1ccc(-c2nn(-c3cc(N4CCNCC4)ccc3[N+](=O)[O-])c(=O)c3ccccc23)cc1C | -1.05
O=C1CCCc2oc3c(Br)cc(NS(=O)(=O)c4ccc5ccccc5c4)cc3c21 | -0.14
O=C(Cn1c(=O)oc2cc(Cl)ccc21)N(Cc1ccncc1)CC1CCCO1 (stereo not drawn) | 0.79
CC(C)(O)C#Cc1ccc(C(=O)N2CCN(C(c3ccccc3)c3ccccc3)CC2)cc1 | -0.09
CCOC(=O)c1cc2c(=O)n3ccccc3nc2n(C(C)C)c1=NC(=O)c1cccc2ccccc12 | -0.53
O=C(c1cccc(Cl)c1)N1c2ccccc2Sc2ccccc21 | -0.43
Cc1ccccc1-n1c(-c2ccc(C(C)(C)C)cc2)n[nH]c1=S | -1.19
Nc1nc2ccccc2n1CCOc1ccc([N+](=O)[O-])cc1 | -0.25
O=C(Nc1nnc(NC(=O)c2ccccc2O)s1)c1ccccc1O | 0.13
O=C(NCCc1cccc(Cl)c1)c1ccccc1[N+](=O)[O-] | 0.4
